High-throughput results: PubChem BioAssay, National Center for Advancing Translational Sciences (NCATS)
CtBP-E1A inh – inhibitors of CtBP/E1A interaction | AlphaScreen GST-E1A/His-CtBP binding, 1536-well; active compounds read low; control for the full effect not named in the record | activity change, % (no concentration beside the values) | hit rate 0.49% among 340,000 | AID 651724; in the data active means activity change below about -65%; inconclusive means about -30% to -65%; inactive means above about -30%; note: % is set by controls: 0 for no effect and ±100 for the full control effect
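Steps: dispense buffer (Tris pH 8.0, NaCl 300 mM, TCEP 1 mM, BSA, Tween 20); add 5X protein mix (GST-E1A, His-CtBP, 125 nM each); pin 23 nL compound; 2 h at 37 °C, dark; add 5X beads (50 ug/mL); 1 h; read.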
D2 agonist – agonists of human D2 dopamine receptor (beta-arrestin); P14416; DiscoveRx PathHunter D2 beta-arrestin, luminescence, 90 min; 100% = 57 uM dopamine signal; activation, % (test concentration not listed); hit rate 0.084% among 360,000; AID 624465; in the data active = activation above about 40%; inconclusive = about 15% to 40%; inactive = below about 15%; note: compound concentration not given in the record; the text of the record calls up to 30% inactive
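DiscoveRx PathHunter D2 beta-arrestin cells (2,100/well) attached overnight, then compound-stimulated 90 min at 37 C in HBSS/10 mM HEPES/0.1% Tween-20 buffer; beta-galactosidase complementation read by luminescence after 1 h at ambient temperature. Dopamine 57 uM final (EC100) as control.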
D2 PAM – positive allosteric modulators of human D2 dopamine receptor. P14416. DiscoveRx D2 beta-arrestin cells, luminescence, 90 min; 100% = 57 uM dopamine signal. potentiation, % (no concentration beside the values). hit rate 0.23% among 360,000; active = potentiation of 50% or more; inconclusive = 30% to 50%; inactive = 30% or less;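 note: compound concentration not given in the record; tested on top of an EC20 dose of dopamine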
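PathHunter D2 cells, attached overnight at 37 deg C, received compound in DMSO plus dopamine at EC20 (50 nM final) for 90 min at 37 deg C. Beta-arrestin recruitment was read as luminescence after 1 h with detection reagent at ambient temperature.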
gsp agonist – activates gsp, the McCune-Albright syndrome mutation; gsp mutant cells, cAMP HTRF, 30 min; control for the full effect not named in the record; Potency, µM (titrated, usually from 76.9 µM), for inactives: at the top dose activation (cAMP increase), usual class: activators; hit rate 0.13% among 340,000; AID 624287; active = well fitted activation curve with a large enough effect; inconclusive = small, poorly fitted or top-dose-only effect, or another doubt; inactive = no such curve, though single readings can be large or run the other way; cell line not stated here;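 note: phosphodiesterase inhibitor Ro 20-1724 added with compounds to block cAMP breakdown; potency is the fitted concentration of half-maximal effect; nearly all actives have a fitted effect of over 60% in size; about a fifth of the inactives were tested at one dose only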
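Cells in DMEM/10% FBS with G418 were pretreated with compounds in DMSO plus […] (300 uM stock) for 30 min at 37C. cAMP was measured by HTRF (cAMP-d2 plus anti-cAMP antibody-K) after 30 min at room temperature.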
Six1-Eya2 blk – inhibitors of human Six1/Eya2 interaction; hit rate 0.56% among 360,000; AlphaScreen GST-Six1/His-Eya2 binding, biochemical; active compounds read low; control for the full effect not named in the record; Q15475+O00167; AID 651725; activity change, % (test concentration not listed); in the data active = activity change below about -65%; inconclusive = about -30% to -65%; inactive = above about -30%; note: % is set by controls: 0 for no effect and ±100 for the full control effect
Target sequence (O00167 whole entry, looked up): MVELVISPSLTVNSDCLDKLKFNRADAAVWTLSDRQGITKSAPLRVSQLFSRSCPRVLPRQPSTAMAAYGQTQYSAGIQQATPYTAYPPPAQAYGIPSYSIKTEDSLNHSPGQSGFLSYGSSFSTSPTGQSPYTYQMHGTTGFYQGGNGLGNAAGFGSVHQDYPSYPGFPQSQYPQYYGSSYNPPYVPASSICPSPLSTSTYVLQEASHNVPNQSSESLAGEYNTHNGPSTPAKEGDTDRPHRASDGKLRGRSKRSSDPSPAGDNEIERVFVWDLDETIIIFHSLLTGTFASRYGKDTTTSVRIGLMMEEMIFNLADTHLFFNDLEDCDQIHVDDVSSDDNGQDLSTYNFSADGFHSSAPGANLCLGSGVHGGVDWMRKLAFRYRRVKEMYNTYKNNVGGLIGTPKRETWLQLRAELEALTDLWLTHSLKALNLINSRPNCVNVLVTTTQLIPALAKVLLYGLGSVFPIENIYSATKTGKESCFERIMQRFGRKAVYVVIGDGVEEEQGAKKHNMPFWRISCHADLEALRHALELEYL
Target sequence (Q15475 whole entry, looked up): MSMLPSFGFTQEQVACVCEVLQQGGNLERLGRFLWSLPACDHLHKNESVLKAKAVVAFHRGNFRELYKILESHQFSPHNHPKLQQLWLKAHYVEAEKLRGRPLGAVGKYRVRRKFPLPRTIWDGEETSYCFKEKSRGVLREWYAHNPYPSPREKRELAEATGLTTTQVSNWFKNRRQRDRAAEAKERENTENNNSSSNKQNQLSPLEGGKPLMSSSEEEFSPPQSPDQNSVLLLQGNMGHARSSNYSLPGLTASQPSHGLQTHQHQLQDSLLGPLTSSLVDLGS
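GST-Six1 + His-Eya2 (5X stock: 250/500 nM); Tris pH 8.0, 300 mM NaCl, 0.05% BSA, 0.02% Tween 20; GSH donor/Ni acceptor beads; 1 h 37 °C dark; AlphaScreen readout.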
gsp antagonist – antagonists of gsp mutant (McCune-Albright syndrome). Potency, µM (top dose mostly 76.9 µM), for inactives: at the highest dose activity change, negative = inhibition, actives largely listed as inhibitors. gsp-mutant cells, cAMP HTRF, 30 min; control for the full effect not named in the record. hit rate 0.4% among 340,000; active = falling curve of any shape with a large fitted effect; inconclusive = falling curve, mostly with a smaller effect; inactive = flat or rising curve; cell line not stated here;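 note: intracellular cAMP measured with PDE inhibitor Ro 20-1724 present during compound exposure; potency is the fitted concentration of half-maximal effect; % is set by controls: 0 for no effect and ±100 for the full control effect; nearly all actives have a fitted effect of over 65% in size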
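G418-selected cells were plated in DMEM/10% FBS for 16-24 h at 37C, then treated with compounds plus the PDE inhibitor […] (300 uM solution added) for 30 min at 37C. Intracellular cAMP was measured by HTRF after 30 min lysis at room temperature.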
The depositor's hits bear a star; ? = inconclusive; / = not tested or not shown; [ ] = dose if it differs, or a comment. Compounds as they come. Share with any hit: about 1.4%.

Below each SMILES: CtBP-E1A inh, D2 agonist, D2 PAM, gsp agonist, Six1-Eya2 blk, gsp antagonist
#1 Cc1ccc(NC(=O)C(C)OC(=O)C2CC3CCCC(C2)C3=O)cc1S(=O)(=O)N1CCOCC1 (stereo not drawn)
    -4, 2.7, 22, 1%, 0, -3%
#2 CC1(c2ccccc2)NC(=O)N(CC(=O)Nc2cc(Cl)ccc2N2CCOCC2)C1=O (stereo not drawn)
    2, -2.2, -8, -13%, 7, -8%
#3 Cc1ccc(C)c(C(C)NC(=O)C2CC=CCC2C(=O)O)c1 (stereo not drawn)
    -2, 2.0, -5, -1%, 9, 10%
#4 Cc1ccc(NC(=O)C2CC2c2ccccc2)c([N+](=O)[O-])c1 (stereo not drawn)
    -25, -1.2, -5, -1%, ?, -1%
#5 Cc1onc(-c2c(F)cccc2Cl)c1C(=O)OCN1C(=O)c2ccccc2C1=O
    3, 0.5, -14, 2%, -5, -17%
#6 CCN(CC)CCCNc1ncnc2scc(-c3ccc(F)cc3)c12
    -1, 1.2, -17, 10%[15.4 µM], -1, 15%
#7 COC(=O)c1ccc(Cl)c(NC(=O)NC23CC4CC(CC(C4)C2)C3)c1
    -1, -2.4, -14, -15%, 3, -9%
#8 O=C(COC(=O)CNC(=O)C1CCCCC1)NCc1ccc(Cl)cc1
    5, 3.7, -3, -17%, 4, 7%
#9 COc1ccc(S(=O)(=O)NCc2ccccc2Cl)cc1OC
    -2, -3.8, 2, 34%, -7, 9%
#10 CCc1ccc(NC(=O)CSc2nnc(Cn3c(=O)sc4ccccc43)n2C)cc1
    -8, -2.1, -7, -16%, -9, 0%
#11 O=C(N1CCCCC1)C12CC3CC(C1)CC(C(=O)N1CCCCC1)(C3)C2
    3, -2.9, -6, 3%, 24, 18%
#12 COc1ccc(CNCCC(c2ccc(OC(C)C)cc2)c2ccccc2OC)cc1OC (stereo not drawn)
    -12, -1.5, -14, 4%[15.4 µM], -7, -24%
#13 O=C(Nc1ccccc1)C(=O)c1cn(CC(=O)N2CCCCC2)c2ccccc12
    -17, -3.2, -14, -13%[15.4 µM], -25, -26%
#14 O=C1CCCCC1Sc1nnc(Cc2cccs2)n1CCc1ccccc1 (stereo not drawn)
    -2, -2.5, -8, 10%, -9, -27%
#15 O=C(O)CCS(=O)(=O)Cc1cccc(Cl)c1
    2, 0.2, -6, 36%, 6, 9%
#16 COc1ccccc1-n1nc(C(=O)O)c2ccccc2c1=O
    -1, 1.6, 0, 13%, 7, 3%
#17 CC(C)Oc1ccc(C2CNC(=O)C2)cc1 (stereo not drawn)
    -8, -5.0, -8, 15%, 32, 16%
#18 CC(C)[C@H](NC(=O)[C@H]1N2C(=O)c3ccccc3C2SC1(C)C)C(=O)NCc1ccco1 (stereo partly drawn)
    0, -2.0, -8, -31%[inhibitor], 0, 1%
#19 O=C(Nc1cccc(S(=O)(=O)NC2=NCCC2)c1)c1c(F)cccc1Cl
    -14, -0.4, -17, -11%, 7, -1%
#20 C/C(=N/NC(=O)c1ccccc1)c1ccc(NC(=O)C(F)(F)F)cc1
    5, 0.1, -5, 4%, -1, 3%
#21 CCOC(=O)N1CCN(c2cc(N(C)CCO)c([N+](=O)[O-])c3nonc23)CC1
    -7, -4.7, -2, 31%, -1, ?
#22 Cc1ccc(CN2CCNC(=O)C2CC(=O)NCCCn2ncc3ccccc32)o1 (stereo not drawn)
    -12, -4.7, -17, -6%, -8, -10%
#23 CN(C)C(=O)CSc1nnc2sc3ccccc3n12
    -1, -3.5, 2, ?, -2, 6%
#24 CCCNS(=O)(=O)c1ccc(OCC(=O)Nc2ccccc2F)cc1
    4, -0.4, -10, -1%, -1, -10%
#25 CNC(=S)Nc1cc2oc3ccccc3c2cc1OC
    -2, 2.3, 7, 24%, -6, -8%
#26 CSc1ccc(C(c2c(C)[nH][nH]c2=O)c2c(C)[nH][nH]c2=O)cc1
    -8, -3.4, -1, 5%, 0, 2%
#27 Cc1nn(-c2ccc(F)cc2)c(Cl)c1/C=N/NC(=O)c1ccc(O)cc1
    0, 0.7, 10, 1%[15.4 µM], -14, /
#28 COC(=O)Nc1ccc(C)cc1NC(=O)OC
    5, -2.1, 13, 2%, 2, 6%
#29 COc1ccc(CCNC(=O)CCC(=O)N2CC(C)Oc3ccc(Cl)cc32)cc1OC (stereo not drawn)
    1, -0.5, -5, 12%, 0, -16%
#30 O=C(CN1CCOCC1)N/N=C/c1cc2ccccc2nc1Cl
    -10, -2.5, -3, ?, -10, 10%

Below each SMILES: CtBP-E1A inh, D2 agonist, D2 PAM, gsp agonist, Six1-Eya2 blk, gsp antagonist
#31 CCc1noc(C)c1C(=O)NCCc1ccc(Cl)cc1
    3, 1.6, -2, 8%[15.4 µM], 8, 6%
#32 O=C(CN1C(=O)/C(=C/c2ccccc2F)Sc2ccccc21)N1CCN(c2ccccn2)CC1
    -7, -1.2, 0, 33%, -4, -22%
#33 CNC(=O)CS(=O)(=O)CC(=O)Nc1cc(OC(C)C)c(Cl)cc1Cl
    -2, -2.9, -4, -4%, 2, -21%
#34 COc1cc(-c2noc(CCC(=O)Nc3cccnc3)n2)cc(OC)c1OC
    6, 1.9, 11, 3%, 0, -3%
#35 COc1cccc(-c2nnn(CCc3nn[nH]n3)n2)c1
    -1, -1.8, 5, -4%, 3, -7%
#36 COc1ccc(N2CCN(C(=O)c3cccc(NS(=O)(=O)c4cccc(F)c4)c3)CC2)cc1
    -15, -5.0, -14, 2%, -8, ?
#37 Nc1nc(=S)c2ncn([C@@H]3O[C@H](CO)[C@@H](O)[C@H]3O)c2[nH]1
    2, -5.4, -4, /, 2, 2%
#38 O=C(NN1C(=O)c2ccccc2NC1c1ccco1)c1ccc(Br)cc1 (stereo not drawn)
    0, 1.8, -9, -2%, 10, 10%
#39 CSc1ccc(CN2CCC(CO)(CCOc3ccccc3)CC2)cc1
    /, 1.2, -82, 12%, 13, 0%
#40 COc1cccc(C2C(C(=O)Nc3cccnc3)=C(C)Nc3nnnn32)c1OC (stereo not drawn)
    2, 1.3, -6, ?, 7, 0%
#41 Cc1csc(NC(=O)[C@@H]2CCCN2C(=O)c2cccs2)n1
    0, -3.5, -3, ?, -2, 7%
#42 O=C(CCc1c[nH]c2ccccc12)NC(Cc1c[nH]c2ccccc12)C(=O)O (stereo not drawn)
    /, -6.9, -8, ?, 16, 4%
#43 CCOC(=O)c1c(NC(=O)C(C)NCc2ccco2)sc2c1CCC(C)C2 (stereo not drawn)
    -3, -6.6, 13, 0%, -5, -11%
#44 O=C(Nc1ccccc1)N(Cc1cccnc1)Cc1ccco1
    0, 2.1, -1, -19%, 7, 12%
#45 Cc1ccc(Cn2ncn(-c3ccccc3)c2=O)cc1
    7, -11, -7, -2%[15.4 µM], 4, 13%
#46 O=S(=O)(Cc1cc(Cl)nc(-c2ccncc2)n1)c1ccccc1
    7, -1.2, -4, 10%[15.4 µM], -10, -19%
#47 CN(C)C(=O)Cn1cnc2c(cnn2-c2ccc(F)cc2)c1=O
    -5, -2.5, -4, 3%, -2, -5%
#48 CN(C)/C=N/c1nc(-c2ccc3c(c2)OCO3)cs1
    -2, -2.1, -11, -8%[15.4 µM], 0, -4%
#49 CC1CC(NC(=O)C2(C)CC2(Cl)Cl)CC(C)(C)C1 (stereo not drawn)
    11, 0.4, -2, 18%, 4, 3%
#50 CCOc1ccc2oc(-c3ccccc3)c(C(=O)N(C)C)c2c1
    -8, 0.0, -4, -51%[inhibitor], -6, -6%
#51 Cc1ccc2occ(/C=N/NC(=O)c3ccccc3O)c(=O)c2c1
    -5, -5.8, -5, ?, -3, 1%
#52 CCOC(=O)c1cccc(NC(=O)CSc2nnc(-c3ccoc3C)n2CC)c1
    -9, 0.9, 0, ?, -2, -8%
#53 Cn1c(Cn2nnc3ccccc32)nnc1SCC(=O)Nc1nccs1
    -4, -0.2, -5, 1%, 4, 4%
#54 COc1cccc(NC(=O)CSc2nncn2N)c1
    6, 2.7, -18, -36%[inhibitor], 6, 6%
#55 COc1ccc(NC(=O)CN2C(=O)NC3(CCCC3)C2=O)c(OC)c1
    5, -1.6, -3, 4%[15.4 µM], -1, /

A different layout for some results above:
No.	SMILES	CtBP-E1A inh	D2 agonist	D2 PAM	gsp agonist	Six1-Eya2 blk	gsp antagonist
44	O=C(Nc1ccccc1)N(Cc1cccnc1)Cc1ccco1	0	2.1	-1	-19%	7	12%
45	Cc1ccc(Cn2ncn(-c3ccccc3)c2=O)cc1	7	-11	-7	-2%[15.4 µM]	4	13%
46	O=S(=O)(Cc1cc(Cl)nc(-c2ccncc2)n1)c1ccccc1	7	-1.2	-4	10%[15.4 µM]	-10	-19%
47	CN(C)C(=O)Cn1cnc2c(cnn2-c2ccc(F)cc2)c1=O	-5	-2.5	-4	3%	-2	-5%
48	CN(C)/C=N/c1nc(-c2ccc3c(c2)OCO3)cs1	-2	-2.1	-11	-8%[15.4 µM]	0	-4%
49	CC1CC(NC(=O)C2(C)CC2(Cl)Cl)CC(C)(C)C1 (stereo not drawn)	11	0.4	-2	18%	4	3%
50	CCOc1ccc2oc(-c3ccccc3)c(C(=O)N(C)C)c2c1	-8	0.0	-4	-51%[inhibitor]	-6	-6%
51	Cc1ccc2occ(/C=N/NC(=O)c3ccccc3O)c(=O)c2c1	-5	-5.8	-5	?	-3	1%
52	CCOC(=O)c1cccc(NC(=O)CSc2nnc(-c3ccoc3C)n2CC)c1	-9	0.9	0	?	-2	-8%
53	Cn1c(Cn2nnc3ccccc32)nnc1SCC(=O)Nc1nccs1	-4	-0.2	-5	1%	4	4%
54	COc1cccc(NC(=O)CSc2nncn2N)c1	6	2.7	-18	-36%[inhibitor]	6	6%
55	COc1ccc(NC(=O)CN2C(=O)NC3(CCCC3)C2=O)c(OC)c1	5	-1.6	-3	4%[15.4 µM]	-1	/
